Anaer choline gr: choline-fed anaerobic bacterial growth inhibition; 0.2% of 55,000 active; Gram-negative bacterium anaerobic choline minimal medium, absorbance growth; active compounds read low; many inactives read as strong as hits in the columns shown; calls only;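 active means growth z-score on choline under -2 at 7 or 20 h with little or no fall on glycerol, limits in tiers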;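 further: stock transfer was 300 nL into about 50 µL; the organism is E. coli; final concentration not given here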
Anaer choline gr early: second read-out of Anaer choline gr, no call of its own (marks repeat the call); z-score; measured here: choline growth z-score, timepoint 1;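 score of optical density at 7 h as mean of two plates; lower means less growth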
An asterisk follows results filed as active; i = inactive; + = active, no number; & = joins results of further samples.

SMILES | Anaer choline gr | Anaer choline gr early
Cc1ccc(-c2c(C(F)(F)F)nn3c(N4CCN(C)CC4)cc(C)nc23)cc1 | i | 0.17
COc1ccc2c(c1)CCc1c-2n[nH]c1C(=O)Nc1cccc2nsnc12 | i | -0.29
Cc1ccc(C(=O)Cn2nc3n(CC(C)C)c(=O)c4ccc(C(=O)NCC(C)C)cc4n3c2=O)c(C)c1 | i | 0.65
Cc1[nH]c(C)c(S(=O)(=O)NCCc2ccc(S(N)(=O)=O)cc2)c1C(=O)N1CCCC1 | i | -0.32
Cc1csc2nc(CN(Cc3ccc(C(C)C)cc3)CC(C)C)cc(=O)n12 | i | -2.1
Cc1csc(-c2cc(S(=O)(=O)NCCN3CCOCC3)cn2CC(=O)N2CCCCC2)n1 | i | -0.26
Cc1cc(C)c(S(=O)(=O)Nc2cnc(N3CCNCC3)c(C(=O)N3CCCCC3C)c2)c(C)c1 (stereo not given) | i | 0.36
CCc1oc2ccccc2c1CC1C(=O)Nc2ccccc21 (stereo not given) | i | -1.3
CC(C)c1ccc(S(=O)(=O)Nc2cc(C(=O)O)cnc2N2CCCC2)cc1 | i | 0.26
CC1CCc2cc(F)cc3c(=O)c(C(=O)O)cn1c23 (stereo not given) | i | -0.26&-2.9
Cc1ccc(-c2cc(C(=O)N3CCc4ccccc4C3)c(C)[nH]2)cc1 | i | 0.28
CCOc1ccc(C2CC(=O)Nc3n[nH]c(C)c32)cc1 (stereo not given) | i | -0.48
Cc1ccc(C2N3CC4(C)CN2CC(C)(C3)C4O)cc1 (stereo not given) | i | 0.19
Cn1nc(C(=O)N2CCCC(C(=O)NC3CC3)C2)c2c1CCN(C(=O)c1ccccc1Cl)C2 (stereo not given) | i | -0.85
Cc1nn(C)c2nc(OC(C)C(=O)Nc3ccc(Cl)cc3)cc(C(F)(F)F)c12 (stereo not given) | i | 1
CC1(C)S[C@@H]2[C@H](NC(=O)C(C(=O)O)c3ccsc3)C(=O)N2[C@H]1C(=O)O (stereo not given in full) | i | 0.5
O=C(NCCN1CCOCC1)C(=O)NCC(c1cccnc1)N1CCc2ccccc2C1 (stereo not given) | i | 0.35
c1ccc(CCNc2nc3ccccc3c3nc(-c4ccccc4)nn23)cc1 | i | 0.09
Cn1c(=O)n(C)c2cc(N3CCCC3)c(NC(=O)Nc3ccc4c(c3)OCO4)cc21 | i | -0.3
O=C1CC(c2c(F)cccc2Cl)C2=C(CCCC2=O)N1 (stereo not given) | i | 0.29
CC(=O)Nc1ccc(N2C(=O)c3ccccc3C2C(=O)NCCCOC(C)C)cc1 (stereo not given) | i | 1.4
COC(=O)CC1=CC(SCc2ccc(OC)c(F)c2)=Nc2ccccc2N1 | i | 0.76
Cc1ccc2[nH]cc(CCNC(=O)CCCn3c4ccccc4c4cnn(C)c(=O)c43)c2c1 | i | -0.51
O=C(Cc1ccc(Cl)cc1)Oc1cccc(-n2cnnn2)c1 | i | -1.2
CCCCCCCCCCCCCCSCC(=O)O | i | 0.83
CC(Sc1nnc(CN(c2ccc(F)cc2)S(C)(=O)=O)n1C)C(=O)Nc1nccs1 (stereo not given) | i | -0.13
Cc1nn(-c2ccccc2)c2sc(-c3noc(CNC(=O)Cc4ccccc4)n3)cc12 | i | 0.79
O=C(C1CCN(c2nc(-c3ccc(Cl)cc3)no2)CC1)N1CCCCC1 | i | -0.18
O=C(Cc1csc(NC(=O)Nc2ccccc2)n1)Nc1ccc(Cl)cc1 | i | 0.54
O=C(Nc1cccc(Cl)c1)NC(c1ccccc1)c1nnc(-c2ccccc2)o1 (stereo not given) | i | 1.9
Cn1c(=O)c2ccc(C(=O)NC3CCCC3)cc2n2c(=O)n(CC(=O)NC3CCCC3)nc12 | i | -0.95
Cc1noc2c1C(c1ccc(Cl)cc1)C1=C(CC(c3ccccc3O)CC1=O)N2 (stereo not given) | i | -0.85
Cc1c(C(=O)NC2CCCC2)cccc1-n1nnc2cccnc21 | i | -0.03
COc1ccc(C(=O)N2CCCC(c3nc(-c4ccc(NC(C)=O)cc4)no3)C2)c(OC)c1 (stereo not given) | i | 0.32
CCOC(=O)c1cc2n(n1)CC(C)(C(=O)NCCC(C)C)N(c1cccc(Cl)c1)C2=O (stereo not given) | i | -0.05
Cc1ccc2nc(CCc3cccc(NC(=O)CN4C(=O)COc5ccccc54)c3)[nH]c2c1 | i | 0

Structures above containing a CF3 group:
SMILES | Anaer choline gr | Anaer choline gr early
Cc1ccc(-c2c(C(F)(F)F)nn3c(N4CCN(C)CC4)cc(C)nc23)cc1 | i | 0.17
Cc1nn(C)c2nc(OC(C)C(=O)Nc3ccc(Cl)cc3)cc(C(F)(F)F)c12 (stereo not given) | i | 1

(next part)
SMILES | Anaer choline gr | Anaer choline gr early
O=C(Nc1ccc(Oc2ccccc2)cc1)c1cc2c(=O)n3ccccc3nc2s1 | i | -1.2
COc1ccc(C2C=C(c3ccc(Br)cc3)Nc3nc(NS(C)(=O)=O)nn32)cc1 (stereo not given) | i | 0.09
CCCN(C(=O)CC)c1nc(-c2ccc(C)cc2)cs1 | i | 0.51
COc1ccc(-n2ccc(=O)c(-c3nc(-c4cccc(F)c4)no3)n2)cc1 | i | 0.42
CCC(CC)C(=O)Nc1cc(C)nn1-c1ncnc2c1cnn2-c1ccc(F)cc1 | i | -1.1
O=S(=O)(NCCc1n[nH]c(Cc2ccc(F)cc2)n1)c1ccccc1F | i | 0.94
Cc1cc(NC(=O)CCc2nc(CSc3nc4ccc(Cl)cc4[nH]3)no2)no1 | i | -0.77
CN[C@@H]1C(O[C@H]2O[C@H](CO)[C@@H](N)[C@H](O)[C@H]2O)O[C@H]2C[C@@H](N)[C@@H](O[C@H]3[C@H](O)[C@@H](O)[C@H](N)C[C@@H]3N)OC2[C@@H]1O (stereo not given in full) | i | 0.97
COc1ccccc1NC(=O)Nc1ccc2nc(SCC(=O)Nc3ccccc3C)sc2c1 | i | -1.1
C=CCn1c(C(=O)NCCc2c[nH]c3ccccc23)cc2cc(S(=O)(=O)N(C)C)ccc21 | i | 2.3
Cc1cccc(S(=O)(=O)N2C[C@@H]3CN(S(=O)(=O)c4cnc[nH]4)C[C@H](C2)O3)c1 | i | 1.1
Cc1oc2ncn(CCC(=O)NC3CCS(=O)(=O)C3)c(=O)c2c1C (stereo not given) | i | -0.55

Compound profiles (already shown). Order of screens: Anaer choline gr, Anaer choline gr early
Cc1nn(C)c2nc(OC(C)C(=O)Nc3ccc(Cl)cc3)cc(C(F)(F)F)c12 (stereo not given) across the screens: i, 1
CCOC(=O)c1cc2n(n1)CC(C)(C(=O)NCCC(C)C)N(c1cccc(Cl)c1)C2=O (stereo not given) across the screens: i, -0.05

Additional results.
SMILES | Anaer choline gr | Anaer choline gr early
NS(=O)(=O)c1ccc(CCNS(=O)(=O)c2ccccc2-c2nc(-c3ccccc3)no2)cc1 | i | -1.9
O=C(NCc1ccc(-c2nn3cnnc3s2)cc1)c1cncc(Br)c1 | i | 0.74
COc1ccc(CNc2c(C(=O)NCc3ccccc3)cnc3c2c(C)nn3-c2ccccc2)cc1 | i | 0.77
COc1ccc(-c2nn3c(NCc4cccnc4)cc(C)nc3c2C)cc1OC | i | -0.04
O=C(NCc1ccc(Cl)cc1)c1ccc(S(=O)(=O)c2ccc(Cl)cc2)nc1 | i | -0.13
CC(C)(C)CNC(=O)c1[nH]cnc1C(=O)NCC1CC1 | i | -0.51
Cc1csc(NC(=O)CN2C(=O)C(C)(C)c3cc(S(=O)(=O)N4CCC(C)CC4)ccc32)n1 | i | -0.08
Cc1ccc(C2Nc3ccccc3-n3cc4c(=O)n(C)c(=O)n(C)c4c32)c(O)c1 (stereo not given) | + | 0.32*
COc1ccc(N(CC(=O)N2CCN(c3ccccc3F)CC2)S(=O)(=O)c2ccc(OC)c(OC)c2)cc1 | i | 0.64
Cc1oc2ncn(CC(=O)N3CCN(C4CCCCC4)CC3)c(=O)c2c1C | i | -1.6
Cc1cc(-c2cc(S(=O)(=O)N3CCC(Cc4ccccc4)CC3)c(C)s2)n[nH]1 | i | -0.54
COc1ccc(C(CNC(=O)Nc2ccc3c(c2)OCCO3)c2c[nH]c3ccccc23)cc1OC (stereo not given) | i | 0.15

Seven compounds out of the list above, ordered by the value under Anaer choline gr early, largest number first.
SMILES	Anaer choline gr early
COc1ccc(CNc2c(C(=O)NCc3ccccc3)cnc3c2c(C)nn3-c2ccccc2)cc1	0.77
COc1ccc(N(CC(=O)N2CCN(c3ccccc3F)CC2)S(=O)(=O)c2ccc(OC)c(OC)c2)cc1	0.64
COc1ccc(-c2nn3c(NCc4cccnc4)cc(C)nc3c2C)cc1OC	-0.04
Cc1csc(NC(=O)CN2C(=O)C(C)(C)c3cc(S(=O)(=O)N4CCC(C)CC4)ccc32)n1	-0.08
CC(C)(C)CNC(=O)c1[nH]cnc1C(=O)NCC1CC1	-0.51
Cc1oc2ncn(CC(=O)N3CCN(C4CCCCC4)CC3)c(=O)c2c1C	-1.6
NS(=O)(=O)c1ccc(CCNS(=O)(=O)c2ccccc2-c2nc(-c3ccccc3)no2)cc1	-1.9

(list continues)
SMILES | Anaer choline gr | Anaer choline gr early
O=S(=O)(c1cn(Cc2noc(COc3ccccc3)n2)cn1)N1CCCCC1 | i | -2.9
COc1cccc(C2CC(=O)Nc3n[nH]c(C)c32)c1 (stereo not given) | i | -0.84
O=C(CCC(=O)N1CCCC1c1nc2ccccc2s1)N1CCc2ccccc21 (stereo not given) | i | -0.09
O=C(Nc1nc2ccc(S(=O)(=O)N3CCCCC3)cc2s1)C1CCCO1 (stereo not given) | i | -0.46
CCN1CCN(CCCNS(=O)(=O)c2cc(-c3nc(C)c(C)s3)sc2C)CC1 | i | -0.65
CC(NC(=O)c1ccc(-n2nnc3cccnc32)cc1)c1ccccc1 (stereo not given) | i | 0.04
Cc1ccc(/C=C2\CNC/C(=C\c3ccc(C)cc3)C2=O)cc1 | i | 0.83
C=C(C)C1CC[C@]2(C(=O)O)CC[C@]3(C)[C@H](CC[C@@H]4[C@@]5(C)CCC(O)C(C)(C)[C@@H]5CC[C@]43C)[C@@H]12 (stereo not given in full) | i | 0.45
O=C1COc2ccc(NC(=O)c3cccc(Cl)c3)cc2N1 | i | 0.08
Cc1ccc2nc(CNC(=O)CCn3ccc(C)n3)[nH]c2c1 | i | -1.7
Cc1cc(C)cc(OCC(=O)Nc2onc3c2CCCC3)c1 | i | -0.15
O=S(=O)(c1cc(F)ccc1F)N1CCn2cccc2C1c1ccccc1F (stereo not given) | i | 0.72
CCCCN1C[C@H](O)[C@@H](O)[C@H](O)[C@H]1CO | i | 0.42
Cc1cc(NCc2cccnc2)n2nc(C(F)(F)F)c(-c3ccc(F)cc3)c2n1 | i | -0.11
Cc1ccc(Cl)cc1NC(=O)C1CCN(c2nnc(-n3cccc3)s2)CC1 | i | -0.98
CCOc1ccc(NS(=O)(=O)c2cc(C(=O)n3nc(C)cc3C)n[nH]2)cc1 | i | -0.23
Cc1cc2c(=O)n(CC(=O)NCC(=O)N3CCN(c4ccccn4)CC3)cnc2s1 | i | 0.09
Cc1ccc(-c2noc(-c3cccnc3N3CCC(C)CC3)n2)cc1 | i | 0.02
O=c1[nH]ccc2c(O)cccc12 | i | -0.09
O=C(Cc1csc(NC(=O)c2ccccc2)n1)NCc1ccc2c(c1)OCO2 | i | 0.38
Cc1ccccc1-n1nnnc1C(C)(C)NCc1ccccc1 | i | -0.89
CC(C)n1c(=O)c(=O)[nH]c2cc(-c3noc(-c4cc5ccccc5[nH]4)n3)ccc21 | i | 0.44
CCNc1nc(NC(C)(C)C)nc(-n2cnc(SC)n2)n1 | i | 1.1
CCc1cc(C(Nc2nc(C)cc(C)n2)c2ccccn2)c(NC(=O)c2ccccc2)s1 (stereo not given) | i | 0.06
COc1cccc(-c2cc(=O)n3c(nc4ccccc43)[nH]2)c1 | i | 3.1
COCCNC(=O)CSc1nnc(-c2cccnc2)o1 | i | -0.47
Cc1ccc2ccc3cc(C(=O)Nc4nc5ccccc5s4)nc3c2[nH]1 | i | 0.71
O=C1N(Cc2cc(F)cc(F)c2)c2ccccc2S(=O)(=O)N1c1cc(F)ccc1F | i | -0.6
CCS(=O)(=O)Nc1ccc2c(c1)CC(=O)N2C | i | 0.75
COc1ccc(OC)c(C2CC(=O)Nc3nc(N)[nH]c(=O)c32)c1 (stereo not given) | i | -0.67
O=C(NCC1CCCO1)c1cc(OCc2ccccc2)nc2ccccc12 (stereo not given) | i | -1.1
O=c1ccc(-c2ccc(F)cc2)nn1CCc1nc(-c2ccccc2Br)no1 | i | -0.16
CCCCC[C@H](O)/C=C/[C@@H]1[C@@H](CC(=O)CCCCC(=O)O)[C@@H](O)C[C@H]1O | i | -0.19&1.1
Cc1cccc(NC(=O)c2cccn3c(-c4ccccc4F)nnc23)c1 | i | 0.42
COC(=O)CN(c1nc2nc(C)cc(C)n2n1)S(=O)(=O)c1ccc(Cl)cc1 | i | -1.2
N[C@@H](CS(=O)O)C(=O)O | i | -0.28&0.96
CC(C)(C)c1csc(-c2csc(S(=O)(=O)NCC3CCCCC3)c2)n1 | i | -0.56
Cc1ccc(CNC(=O)C2CCCN(c3ccncc3)C2)cc1 (stereo not given) | i | -2.5
O=C(Cn1cnc2onc(-c3ccc(Cl)cc3)c2c1=O)Nc1ccc(F)cc1F | i | -0.39
O=C(CC1CCN(C(=O)C2CCCCC2)CC1)NCCCN1CCc2ccccc2C1 | i | -0.25
CS(=O)(=O)N1N=C(c2ccccc2O)CC1c1cn(-c2ccccc2)nc1-c1ccccc1 (stereo not given) | i | 0
O=c1[nH]c2ccc(NS(=O)(=O)c3cnc[nH]3)cc2s1 | i | -0.11
Cc1ccccc1CNC(=O)C1(C)CCCN(C(=O)NC(C)C)C1 (stereo not given) | i | -0.52
CCOC(=O)c1c(NC(=O)C2Cc3ccc(C)cc3C(=O)O2)sc2c1CCC2 (stereo not given) | i | -0.37
CCc1ccc(NC(=O)CN2CCN(Cc3cc(C)ccc3C)S2(=O)=O)cc1 | i | 0.38

These rows are one share of the data. The share of hits here may be higher or lower than overall.
